BasE inh: BasE siderophore biosynthesis inhibition. 0.1% of 84,000 active. inhibition, % (no concentration beside the values). purified BasE, fluorescence polarization binding displacement. AID 485350;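 active means both replicates above 25% with normal brightness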;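 further: 0% = negative plate control signal and 100% = positive plate control signal; stock transfer was 100 nL into about 30 µL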
KSHV LANA nucl: inhibitors of KSHV LANA binding to nucleosomes. FITC-LANA1-23 / chicken nucleosome fluorescence polarization; stronger effect = lower value. z-score (test concentration not listed). 0.3% of 51,000 active;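 active means both repeat wells score below -2 in polarization z-score versus plate sample wells, excluding overly bright wells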;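 further: 100 nL library stock added to about 30 µL; numbers are from one replicate; some results filed as inactive read as strong as hits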
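Test system: purified chicken nucleosomes with FITC-labelled LANA N-terminal peptide (1-23); Input: 240 nM purified chicken nucleosomes (480 nM peptide binding sites), final; Medium: TEN-BT buffer, pH 7.5; Timing: 10–45 min, room temperature; Technique: fluorescence polarization, 480 nm excitation, 535 nm parallel and perpendicular emission; Replication: duplicates.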
Active calls of the source: *; x = no result given; & = joins results of further samples.

Structure	BasE inh	KSHV LANA nucl
CCCn1c(Cc2ccc(OC)c(OC)c2)nc2ccccc21	-0.7	0.1
NC(=O)CSc1nnc(COc2cccc3ccccc23)o1	0.8	0.2
O=C1CCc2cc(Cl)ccc21	-2.7	0.23
NNC(=O)c1ccc(-c2ccccc2F)cc1	0.1	x
N/C(=N\OC(=O)c1ccsc1)c1ccc(Br)cc1	-0.2	0.15
CCOC(=O)CN(C)Cc1ccc(Cl)c(Cl)c1	-4.9	-1.5
N#Cc1ccc(COC(=O)c2cccnc2N2CCOCC2)cc1	0.6	x
CC1(C)Oc2ccc(C(=O)N3CCOCC3)cc2NC1=O	0.3	0.3
CN(C)c1ccc(CN2CCc3c([nH]c4ccccc34)C2)cc1	0.9	0.68
CN(C1CCCCC1)S(=O)(=O)c1ccc(NC(=O)C2COc3ccccc3O2)cc1 (stereo not given)	0.1	x

Structure	BasE inh	KSHV LANA nucl
O=C(CP(=O)(O)CC(=O)c1ccccc1)c1ccccc1	0.2	x
O=C1CSC(c2ccccc2)N1Nc1nc(N2CCOCC2)nc(N2CCOCC2)n1 (stereo not given)	0.8	0.31
O=C1NC(CCc2ccccc2)C(=O)N1CCOc1ccccc1 (stereo not given)	-4.5	x
CCCN1CNc2nc3ccccc3n2C1	0.3	1.2
COc1ccc(OC)c(CC(=O)Nc2c(N)nc(N)nc2N)c1	20	x
O=C(C1CCCN(S(=O)(=O)Cc2ccccc2)C1)N1CCc2ccccc21 (stereo not given)	1.1	-0.11
NC(=O)c1cccnc1	x	0.38&0.46&-0.53
Nc1nc(NC(=S)Nc2ccccc2)cc(=O)[nH]1	2.2	-0.48
NC(=O)c1cc(-c2csc(N3CCCC3)n2)ccc1O	-1.2	x
O=S(=O)(c1ccc2c(c1)CCCN2)N1CCCCC1	0.0	x

Structure	BasE inh	KSHV LANA nucl
COc1cc(NC(=O)CSc2ccccc2)cc(OC)c1	-3.6	x
CC1CN(CC(=O)N2CCNC2=O)CC(C)O1 (stereo not given)	-1.0	x
Cc1ccc(/C=N/NC(=O)Cn2ccc(C(F)(F)F)n2)o1	0.2	x
O=S(=O)(c1ccc2c(c1)C(=NO)c1cc(S(=O)(=O)N(CCO)CCO)ccc1-2)N(CCO)CCO	-0.8	-1.1
O=C(COC(=O)C1CCN(S(=O)(=O)c2ccc3c(c2)OCCO3)CC1)c1ccc(Cl)s1	-2.0	x
c1coc(CSc2nc3ccccc3n3cnnc23)c1	-4.0	0.51
COc1cc(CCC(C)NC(=O)c2ccco2)ccc1OC(=O)c1ccco1 (stereo not given)	2.2	x
O=C(CSc1ccccc1)Nc1ccccc1N1CCOCC1	-0.2	-0.8
CCCN(Cc1nnc(-c2ccco2)o1)C(=O)C1CC(=O)N(Cc2ccccc2)C1 (stereo not given)	0.8	x
Cc1c(NC(=O)C(C)OC(=O)c2c(F)cccc2Cl)c(=O)n(-c2ccccc2)n1C (stereo not given)	0.1	x

Structure	BasE inh	KSHV LANA nucl
O=C(Nc1ccccc1C(F)(F)F)N1CCC(Nc2nc3ccccc3o2)CC1	-2.0	0.66
OC(COc1ccc(-c2ccccc2)cc1)Cn1ccnc1 (stereo not given)	-5.8	-0.63
Fc1ccc(Sc2cc(Cl)c(-c3ccccc3)nn2)cc1	x	-0.35
CCN(CC)C(=O)NCCc1nnc(SC)n1C	0.4	0.027
CC(C)c1ccc(N(CC(=O)N2CCN(Cc3ccccc3)CC2)S(C)(=O)=O)cc1	1.8	x
O=C(c1ccc(S(=O)(=O)NCc2cccs2)s1)N1CCCC1	-0.7	0.97
CNC(=O)CC1C(=O)N(c2ccc(Cl)cc2)C(=S)N1NC(=O)c1cccc(F)c1 (stereo not given)	1.2	x
Cc1cc(C(=O)Nc2ccc(C(=O)N3CCOCC3)cc2)cs1	1.6	0.55
CCC(=O)Nc1cccc(NC(=O)c2ccccc2Cl)c1	2.7	x
Cc1nn(CC(=O)Nc2ccc(N3CCCC3)cc2)c(=O)c2ccccc12	0.6	-0.37

Structure	BasE inh	KSHV LANA nucl
O=S1(=O)N=C(N2CCc3ccccc32)c2ccccc21	0.9	-0.43
CC(CC(=O)O)CC(=O)Nc1ccccn1 (stereo not given)	2.4	-0.38
CC(=O)Nc1ccc(C(=O)Nc2ccccn2)cc1	-0.2	-0.57
CCOc1ccc2oc(C(=O)Nc3ccc(N4CCOCC4)cc3)c(C)c2c1	-0.1	x
CCC(=O)Nc1nc(C)c(-c2csc(Nc3ccc(S(N)(=O)=O)cc3)n2)s1	-1.7	2.1
CCN1CCN(CCCNC(=O)C2CCCN(c3nc4c(C)cc(C)cc4s3)C2)CC1 (stereo not given)	-1.4	-0.066
Nc1ccc(Br)cc1C(O)c1ccccc1 (stereo not given)	0.3	x
O=C1c2ccccc2C(=O)C1(O)N1CCOCC1	0.8	0.018
COc1ccccc1-n1c(=O)c2c3c(sc2n2c(SCC(=O)c4ccccc4)nnc12)CCC3	1.2	0.14
CCOC(=O)/C(C#N)=C/c1ccccc1	2.0	-0.13

Structure	BasE inh	KSHV LANA nucl
O=c1c(C=Nc2ccccc2)c(Nc2ccccc2)[nH]n1-c1ccccc1	1.3	x
S=C1NCCN1CCOc1ccccc1	0.8	x
CC(C)(C)c1ccc(S(=O)(=O)N2CCC(NC(=O)c3ccco3)CC2)cc1	0.3	-0.088
O=C(COc1ccc(Cl)cc1)Oc1cc(=O)[nH]c2ccccc12	1.1	x
O=C(CSc1nc2ccccc2nc1-c1ccccc1)NCCN1CCOCC1	-0.4	-0.49
Cc1cc(=O)oc2cc(OCC(=O)c3ccc4c(c3)OCO4)ccc12	-0.7	x
CCCCCn1c(=O)c2ccccc2n2c(CN3c4cccc5cccc(c45)S3(=O)=O)nnc12	0.7	x
O=C(CCN1CCOCC1)Nc1c(-c2ccccc2)c2cc(Br)ccc2[nH]c1=O	0.1	0.31
COc1cc(Br)c(CCNC(=O)c2ccco2)cc1OC	-1.0	-0.075
COc1cc(-c2nnc(-c3ccc(N4CCOCC4)cc3)o2)cc(OC)c1OC	1.1	-0.72

Structure	BasE inh	KSHV LANA nucl
OCCN1CCN(CC#CCn2c3ccccc3c3ccccc32)CC1	1.6	x
CN1CCN(/C=C2\C(=O)N(c3ccc(Cl)cc3)C(=O)c3ccccc32)CC1	-4.5	x
CNC(=O)N(C1=NCCS1)c1ccccc1	-1.0	0.55
COC(=O)c1ccc(CSc2n[nH]c(=O)n2C2CC2)cc1	0.6	x
NC(N)=Nc1ccccc1F	1.9	0.45
CCCC(=O)N(Cc1nc2ccccc2c(=O)[nH]1)C1CCCC1	-0.1	-0.78
C/C(CN1C(=O)c2ccccc2C1=O)=N/NC(=O)c1ccccc1O	3.0	-0.29
Clc1cccc(-n2ncc3c(NC4CCCC4)ncnc32)c1	1.8	-0.8
N#Cc1c(/N=C/N2CCCCC2)sc2c1CCCC2	-0.2	0.61
COc1cc(/C=C/C(=O)Nc2ccc(-c3nnc4n3CCCCC4)cc2)ccc1OCC#N	1.4	x

Structure	BasE inh	KSHV LANA nucl
CCc1ccc2[nH]c(=O)c(CN(Cc3ccco3)Cc3nnnn3Cc3ccccc3)cc2c1	-2.2	0.21
COCCn1c(SC(C)C#N)nc2cc(Cl)ccc2c1=O (stereo not given)	1.2	x
CCSC1=N/C(=C\c2cc(Br)c(OC(C)=O)c(OC)c2)C(=O)S1	16	x
CCn1c(C)nc2cc(-c3nc4c5c6c(sc5ncn4n3)CCCC6)ccc21	1.4	x
O=C(COC(=O)Cc1cccs1)Nc1ccccc1	-1.1	x
COc1ccc2nnc(-c3ccccc3)n2n1	1.3	0.14
CN(C)C(CNC(=S)NC1CC1)c1ccccc1 (stereo not given)	0.2	x
CC(=O)N/C(=N\OCc1ccc(Br)cc1)c1nonc1NC(C)=O	-1.7	-1.1
O=C(COC(=O)Cn1cnc2ccccc2c1=O)Nc1ccc2c(c1)OCO2	-0.8	x
CC1=[N+](CCO)c2ccccc2C1(C)C	-1.9	0.37

Structure	BasE inh	KSHV LANA nucl
CCCc1nc(SCC(=O)c2ccccc2Cl)[nH]c(=O)c1C	0.4	x
Cc1csc(SCc2ccccc2C(=O)OCC(N)=O)n1	1.0	x
O=c1n(Cc2ccc(F)cc2)nc2n1-c1ccccc1SC2	0.0	x
CS(=O)(=O)N1CCN(C(=O)c2ccccc2)C1	2.1	x
CN(C)c1ccc(NC(=O)Nc2ccc(OCc3ccccc3)cc2)cc1	x	-0.98
O=C(CCC1CCCCC1)Nc1nc2ccccc2s1	3.5	x
N=C(N)N1CCc2ccccc2C1	-0.8	-0.018&-0.53&0.077
Cc1nn(C2CC(=O)N(c3ccc(Cl)cc3)C2=O)c(C)c1C (stereo not given)	-3.6	-0.15
Cc1ccc(C(O)CCc2ccc(N)cc2)cc1 (stereo not given)	x	-0.25
CC(C)Cn1cc(NC(=O)Nc2cccnc2)c2ccccc2c1=O	0.5	x

Fetched by structure from the list above:
Structure	BasE inh	KSHV LANA nucl
CN(C)c1ccc(NC(=O)Nc2ccc(OCc3ccccc3)cc2)cc1	x	-0.98
O=C(CCC1CCCCC1)Nc1nc2ccccc2s1	3.5	x
Cc1ccc(C(O)CCc2ccc(N)cc2)cc1 (stereo not given)	x	-0.25
CC(C)Cn1cc(NC(=O)Nc2cccnc2)c2ccccc2c1=O	0.5	x
CCCc1nc(SCC(=O)c2ccccc2Cl)[nH]c(=O)c1C	0.4	x
Cc1csc(SCc2ccccc2C(=O)OCC(N)=O)n1	1.0	x

(listing goes on)
Structure	BasE inh	KSHV LANA nucl
CN(C)c1ccc(C=C2C(=O)OC(C)(C)OC2=O)cc1	1.8	0.23
CCCc1nc2ccccc2c2nc(N)nn12	-2.1	x
CC(C(=O)O)n1c(C(F)(F)F)nc2ccccc21 (stereo not given)	x	1.1
Cc1ccc(S(=O)(=O)N2CCN(C(=O)c3c(C)nn(-c4ccccc4)c3Cl)CC2)cc1	5.6	0.076
CC(C)(C)c1ccc(-c2ncccc2O)cc1	-2.4	0.52
CCc1nnc(NC(=O)CCN2C(=O)NC3(CCCC3)C2=O)s1	1.9	x
CCN(CC)C(=O)CSc1nc2c(c(=O)n(C)c(=O)n2C)n1Cc1ccccc1C	1.3	0.24
O=C1CCC(=O)N1c1ccc(S(=O)(=O)NCCCN2CCN(Cc3ccccc3)CC2)cc1	0.1	2
O=C1/C(=C/NC2CC2)S(=O)(=O)N(Cc2cccc(F)c2)c2ccsc21	-2.6	x
O=C1NC(c2ccccc2)=N/C1=C\c1ccccc1	5.6	-0.16

Structure	BasE inh	KSHV LANA nucl
CN(C)CCN=Cc1c(O)n(Cc2ccccc2)c(=O)c2ccccc12	-0.8	x
Cc1nn(C(=O)c2ccco2)c(-c2ccccc2)c1Sc1ccccc1	0.9	0.33
Cc1ccc(C2=NS(=O)(=O)N(C)C(C(=O)NCc3ccccn3)=C2)cc1	3.2	0.54
O=S(=O)(c1ccccc1)C1c2ccccc2Oc2ccccc21	0.8	x
CC(=O)Nc1cccc(-n2nnc(SCC(=O)c3cc(-c4ccccc4)no3)n2)c1	-4.0	0.27
C=CCc1c(C)nc(N)[nH]c1=O	0.8	x
CC1CC(C)CN(CC(C)(C)NS(=O)(=O)c2ccc(Cl)cc2)C1 (stereo not given)	0.7	x
CCCCS(=O)(=O)Nc1cc(C)cc(C)c1	0.2	-0.67
O=C(O)c1cc(-n2cccc2)ccc1N1CCOCC1	x	-0.3
O=c1nc2n(-c3ccc(Br)cc3)c3cccc(Cl)c3cc-2c(=O)[nH]1	4.7	x

Structure	BasE inh	KSHV LANA nucl
NNC(=O)CSc1n[nH]c(=O)[nH]c1=O	0.6	x
Cc1c(C(=O)N2CCOCC2)cc(C(C)(C)C)n1-c1ccccc1	-2.3	2.8
O=C(c1ccc(=O)[nH]c1)N1CCSC1=NCc1ccccc1	-1.4	x
COC(=O)CNC(=O)c1c(-c2ccccc2)noc1C	0.9	-0.41
COc1ccccc1NC(=O)c1ccccc1F	0.2	0.32
CC(=O)NCCc1ccc(C(=O)O)cc1	-0.1	x
CC(C)(C)c1ccc(-c2cc(N)n(S(=O)(=O)c3cccc4nsnc34)n2)cc1	0.1	-0.14
CCOC(=O)c1cc2cc(Cl)ccc2oc1=O	0.3	-0.87
Cc1cnc(C(=O)NCc2ccc(Cl)cc2Cl)cn1	-0.2	x
CCOc1ccc(CC(C(N)=O)C(N)=O)cc1	0.8	-0.47

Structure	BasE inh	KSHV LANA nucl
Clc1ccc2c(N3CCOCC3)ccnc2c1	0.2	0.29
CC(C)Cn1cc(C(=O)NCC2CCCO2)c2c3ccccc3n(C)c2c1=O (stereo not given)	0.3	-0.92
CC(=O)Oc1cccc(C(=O)N2CCC(C)CC2)c1	3.4	-1.6
COCCNC(=O)c1cc2c(=O)n(C)c3ccccc3c2s1	0.6	-1.5
CC(C)(C)c1ccc(CSc2nc3c(c(=O)[nH]2)CCC3)cc1	2.0	-1.2
CCC1(c2cccc(OC(=O)C3CCCCC3)c2)CCCCN(C)C1=O (stereo not given)	-0.1	x
Cc1[nH]c(=S)[nH]c(=O)c1Cc1ccc(C(=O)O)o1	2.5	-1.6
O=C(O)CCC(=O)Nc1nc2ccccc2s1	1.9	0.24
Cc1csc(=O)n1CCOC(=O)c1ccc2[nH]c3c(c2c1)CCCC3	0.6	x
Cc1cc(C(=O)NC2CCCCCC2)no1	0.1	x
Cc1cc(C(=O)N/N=C/c2ccc(O)cc2)c2ccccc2n1	-0.1	-0.54
CCn1c(C(=O)OC)cc2c1ccn2-c1ccc(F)cc1	-1.0	2.3

These rows are one share of the data; rates above refer to the full screens.
